Autofluor counter = compound fluorescence in toxin protease inhibitor counterscreen. compound autofluorescence counterscreen, microsphere flow cytometry; active compounds read high. fluorescence intensity (concentration not given with the values). 360,000 compounds, 3.1% hits;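 active = at least 3 SD above the mean of all compounds, about 16000 in these data; inconclusive = too few beads counted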;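 note: 100 nL of 1 mM stock went into each well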
Mtb hypoxia rep = Mtb hypoxia fluorescent reporter inhibition. 300,000 compounds, 0.1% hits. M. tuberculosis hypoxia-regulated fluorescent reporter, fluorescence. fluorescence inhibition, % (concentration not given with the values);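 active = 35 to 45% if threefold the growth effect, above 45% if 1.5-fold the growth effect; inactive = the rest, general growth blockers included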;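 note: wells of about 50 µL received 100 nL stock; 0% = vehicle wells and 100% = reference inhibitor wells; whole bacteria with a GFP reporter of the hypoxia response; strong numbers were not always called active; many hits fall short of the cut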
ugtP null kill = compounds lethal to S. aureus RN4220 ugtP deletion mutant; OD600 growth, 16 h; some inactives read as strong as hits; growth inhibition, % (test concentration not listed); 330,000 compounds, 0.54% hits;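 active = z-score under -3 and OD600 up to 0.15 on both plates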;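 note: plate controls were untreated wells for no effect and antibiotic for full effect; wells of about 80 µL received 100 nL stock; the first replicate is given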
PrP UTR inh = inhibition of PrP 5' UTR reporter expression. cell-based PrP 5' UTR mRNA reporter, plate reader. inhibition, % (test concentration not listed). 340,000 compounds, 0.35% hits. AID 488862;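 active = every replicate at 50% or more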;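 note: 0 = median of the neutral control wells; tested in H4 reporter cells; numbers are from one replicate; inactives centre near -14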
BJeLR lethal = BJeLR cell viability loss; inhibition, % (concentration not given with the values); 300,000 compounds, 0.17% hits; BJeLR (HRASV12) viability, CellTiter-Glo ATP luminescence, 48 h; reference of the scale not given here;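 active = replicate mean above 50%; inconclusive = above 50% but judged a plate artefact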;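 note: 50 nL library stock added to about 25 µL; numbers are from one replicate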
RN4220 kill = kills Staphylococcus aureus RN4220; inhibition, % (concentration not given with the values); AID 1259311; S. aureus RN4220 growth, OD600, 16 h; 330,000 compounds, 0.33% hits;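 active = z-score of -3 or lower and OD600 up to 0.18 on both plates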;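 note: plate controls were untreated cells for no effect and reference antibiotic for full effect; stock transfer was 100 nL into about 80 µL; one replicate is shown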
Mtb hypoxia rep growth = second read-out of Mtb hypoxia rep, no call of its own (marks repeat the call); growth inhibition, %; measured here: M. tuberculosis growth (absorbance);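 0% = vehicle and 100% = reference antibiotic; read after six days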
* hit, by the source's call; ? = inconclusive; nt = not tested or not shown.

SMILES	Autofluor counter	Mtb hypoxia rep	Mtb hypoxia rep growth	ugtP null kill	PrP UTR inh	BJeLR lethal	RN4220 kill
CC(C)CC(=O)Nc1ccc(C(=O)COc2ccc(-c3nnco3)cc2)cc1	3521	nt	nt	3	-23	nt	-1.4
CCCCn1nc(C(=O)N(C)CC(=O)Nc2cccc(F)c2)c2ccccc2c1=O	5082	-10	-7	-1	-32	-1	-1.7
Cc1cccc(NC(=O)N[C@@H](C)C(=O)O)c1	2982	nt	nt	nt	-14	7	nt
O=C(CSc1nc2ccc(Cl)cc2[nH]1)Nc1ccc2[nH]c(=O)[nH]c2c1	?	16	23	2	-14	1	-0.5
CC(C)C[C@H](NC(=O)c1nc[nH]c1C(=O)NC(c1ccccc1)c1ccccc1)C(=O)OC(C)(C)C	3681	nt	nt	nt	-13	6	nt
COc1ccc(C=NOC(=O)Nc2ccccc2OC)cc1	nt	-8	0	-4	nt	nt	7.0
O=C(NCCCC(NC(=O)OCc1ccccc1)C(=O)O)OCc1ccccc1 (stereo not given)	3945	4	-3	3	-5	2	-1.5
Cc1ccc(OC(=O)CCC(=O)NC(C)c2ccccc2)cc1 (stereo not given)	2389	3	-2	11	-7	-14	2.0
CCOC(=O)CN(C(=O)CSc1nnc(CNc2ccc(F)cc2)o1)c1ccccc1	7297	-3	4	-1	-2	-8	2.8
COc1ccc(CCN2C(=O)CC(C(N)=O)SC2=Nc2ccccc2)cc1OC (stereo not given)	5294	-8	-1	-5	-21	-11	5.4
Cc1ccc2c(c1)N(CC(=O)N1CCOCC1)C(=O)CO2	4318	1	-2	4	-12	-2	3.4
Cc1ccc(C#N)c(SCc2ccccc2[N+](=O)[O-])n1	2457	4	15	2	-10	0	6.3
COc1cccc(/C=N/N(C)C2=NS(=O)(=O)c3ccccc32)c1O	4024	nt	nt	nt	1	-1	nt
COc1ccc(C(=O)/C(=C/O)N=Nc2ccc(F)cc2)cc1	4021	nt	nt	nt	-25	10	nt
Cc1cccc(C(=O)N2CCCC(N3CCN(c4ccccc4)CC3)C2)n1 (stereo not given)	5688	6	0	12	-6	5	4.6
O=C(CN1CCCc2ccccc21)NN=Cc1ccc(O)cc1O	nt	18	4	3	nt	nt	5.2
Cc1ccc(S(=O)(=O)NC(=O)c2cc(C)n(CCCN3CCOCC3)c2C)cc1	2940	7	3	-4	-4	-9	-7.4
COc1cc(-c2nc(S(=O)(=O)c3ccc(Cl)cc3)c(N(C)C)o2)cc(OC)c1OC	2770	nt	nt	-4	16	-1	5.2
COc1cccc(NC(=O)C2C3C=CC4(O3)C2C(=O)N(CCCN2CCCCC2)C4C(=O)NC2CCCCC2)c1 (stereo not given)	4806	-5	12	1	-27	6	-2.7
COC(=O)c1ccccc1NC(=O)CN1CCc2ccccc2C1	4196	10	1	3	0	6	4.6
Cc1cc(NC(=O)CSc2ccc3nnc(-c4ccc(Cl)cc4)n3n2)no1	10493	1	1	80	-58	-19	-7.9
CC(C)(C)c1ccc(C(=O)NC(=S)N2CCOCC2)cc1	6111	5	7	1	-77	-3	1.5
CC(C)[C@H](NC(=O)Nc1cccc(Br)c1)C(=O)O	2413	14	6	2	-9	-11	3.8
COc1ccc(N2CCN(C(=O)CCCn3c(=S)[nH]c4cc5c(cc4c3=O)OCO5)CC2)cc1	6101	-7	6	-6	-33	7	-0.1
COc1ccc(C(=O)NN2CCCCC2)cc1OC	22220*	10	5	11	-22	0	6.3
O=C(Nc1ccccc1N1CCOCC1)c1cccc(S(=O)(=O)Nc2ccccc2F)c1	8408	3	-1	4	-36	nt	6.7
CS(=O)(=O)N(CC(=O)N1CCN(Cc2ccc3c(c2)OCO3)CC1)C1CCCCC1	3421	2	8	3	5	4	13
Cc1ccc(OCCn2ccnc2)c(C)c1	4348	3	8	5	-14	-3	3.8
CCCc1nc2oc3c(OC)ncnc3c2c2c1COC(C)(C)C2	19420*	3	7	1	1	-5	0.5
CC(C)(C)NC(=O)C(c1ccncc1)N(CC1CCCO1)C(=O)Cn1nnc(-c2ccc(F)cc2)n1 (stereo not given)	4142	7	4	6	-26	-3	1.7
Cc1ccn2cc(CCNC(=O)CC(C)(C)C)nc2c1	3208	14	8	-4	-16	2	-9.5
CCCCOc1ccc(C(=O)NCc2ccncc2)cc1	20266*	4	6	5	-8	8	0.8
CCOc1ccc(C(=O)NCC(=O)OCC(=O)N(C)CC(=O)Nc2ccccc2CC)cc1OCC	4220	2	3	0	7	nt	3.0
COc1ccc(N2CC(C(=O)N[C@@H](CC(C)C)C(=O)NC3CCCC3)CC2=O)cc1 (stereo not given in full)	5250	1	6	1	-11	-8	0.7
CC(=O)Nc1ccc(S(=O)(=O)NCCC(=O)NC2CCCCCC2)cc1	?	-2	2	7	-1	nt	2.3
Cc1cccc(C2=NN(c3ccccc3)[C@H](CO)[C@H]2c2ccc(Cl)cc2)c1	3792	8	5	-32	6	nt	-18
CCN(Cc1ccccc1OC)CC1CCCN(CCc2cccc(OC)c2)C1 (stereo not given)	3765	11	14	19	-6	6	3.2
CC(=O)OC(C(=O)NCS(=O)(=O)c1ccc(C)cc1)c1cccnc1 (stereo not given)	3485	nt	nt	2	5	-3	-1.1
O=C(O)C1CC(=O)N(c2ccc(Br)cc2)C1 (stereo not given)	4281	4	-3	-3	-18	-3	-2.2
COCCCn1c(SCc2nnc(-c3ccccc3)o2)nc2sc3c(c2c1=O)CCC3	4331	13	1	-1	-3	-2	5.0
CCN(CC)c1ccc(N2C(=O)/C(=C\c3cccnc3)SC2=S)cc1	8728	-9	6	-9	-13	-4	0.3
CC[C@@H](C(=O)n1nc(C)cc1C)[C@H](NS(=O)(=O)c1ccc(C)cc1)c1ccccc1	2873	nt	nt	-8	1	12	3.1
Cc1ccccc1C(=O)c1c[nH]c(C(=O)NCCCn2ccnc2)c1	2832	nt	nt	4	-7	17	-1.7
CCCCNC(=O)NNC(=O)COc1cccc(C)c1C	2539	6	5	-5	-17	-2	5.0
Clc1nccnc1NN=Cc1ccc(Br)cc1	nt	-3	2	0	nt	nt	-2.0
Cc1ccc(/C=C2\C(=O)NC(=S)N(c3ccccc3F)C2=O)s1	2400	2	7	0	-5	nt	12
Cc1cc2cc(CNC(=O)c3cccc([N+](=O)[O-])c3)ccc2[nH]1	2875	-5	-2	-9	-13	-4	3.7
Cc1ccc(-n2nnnc2SCn2nnc3ccccc3c2=O)cc1	3416	14	5	1	-62	nt	-12
CCn1c(CN2CCOCC2)nnc1SCC(=O)Nc1ccc(C(C)=O)cc1	4772	-10	-7	-1	-17	-2	-0.6
CC1(C)Cc2nc3sc(C(N)=O)c(N)c3cc2CO1	4980	16	13	0	-24	9	6.9
COc1ccc(C2C(=O)N(C3CCCCC3)CC(=O)N2CCc2ccccc2)cc1OC (stereo not given)	21105*	4	2	-1	-16	-9	0.3
COCCn1nnnc1C(c1cccs1)N1CCN(c2ccccc2)CC1 (stereo not given)	13073	-4	2	-1	-17	8	0.4
CCOCCN1CCC(OC(C)=O)C(C)C1 (stereo not given)	3247	6	5	4	-1	4	0.5
Cc1ccccc1N1CC2=C(C1=O)C(c1ccccc1)NC(=O)N2C (stereo not given)	4208	4	6	5	-28	-1	2.7
COC(=O)c1c(N2C(=O)Nc3ccccc3N2O)sc2c1CCCC2	2517	7	-2	0	-25	1	13
Cc1cnc(C(=O)NC2CC(C)(C)Cc3c2cnn3-c2cccc(F)c2)cn1 (stereo not given)	4509	nt	nt	nt	-19	11	nt
C/C(=N\NC(=O)CNC(=O)c1cccs1)c1ccc(Cl)c(Cl)c1	5720	nt	nt	nt	-1	-2	nt
COc1ccc(-n2c(C)csc2=S)cc1	9168	6	2	-6	-3	-6	-0.3
O=C(CC(=O)NN=Cc1ccc(Cl)cc1Cl)NCc1ccccc1	nt	4	6	-1	nt	nt	3.6
COC(=O)c1ccccc1S(=O)(=O)N1CCC(C(=O)NCc2ccco2)CC1	nt	12	5	7	-10	nt	2.9
(more compounds)
SMILES	Autofluor counter	Mtb hypoxia rep	Mtb hypoxia rep growth	ugtP null kill	PrP UTR inh	BJeLR lethal	RN4220 kill
Cc1ccc2nc(NC(=O)CSc3nc(=O)n(CCCN(C)C)c4c3CCC4)sc2c1	7753	17	12	-12	-30	4	-0.4
CCOc1ccccc1NC(=O)CSc1ccccc1	5269	3	7	0	-24	-8	9.0
CNc1ccc(Cl)nn1	4231	-7	-6	3	-32	0	5.8
Cc1nn(CC(=O)NCc2ccc(OC(C)C)cc2)c(=O)c2cc(-c3ccccc3)nn12	5482	5	-4	2	-15	-5	3.9
CN1CCN(CC(=O)Nc2cc(N(C)C)nc3ccccc23)CC1	4525	12	8	2	-14	0	3.8
O=C(Nc1ccc(CSc2ccccc2)cc1)c1ccco1	5777	-3	4	3	-69	-8	2.7
O=C(O)c1cccnc1SCc1cccc(Br)c1	3438	-5	6	-20	-20	8	6.3
Cc1cc2c(cc1S(=O)(=O)CCC(=O)N(C)C1CCCCC1)OCC(=O)N2	4487	7	4	8	-11	-8	-6.3
CCn1c(O)c(N=NC(=O)c2ccc(CSc3nncn3C)cc2)c2ccccc21	2751	42*	16*	1	-15	-20	5.5
O=C(CN1CCN(S(=O)(=O)c2ccc3ccccc3c2)CC1)N1CCc2ccccc2C1	3554	4	6	-15	-16	-11	4.7
CSCCC(N=Cc1c(O)n(-c2ccc(Cl)cc2)c(=O)[nH]c1=O)C(=O)OC(C)(C)C (stereo not given)	8992	12	6	-3	-33	3	1.5
CCOc1nc(CC)nc(NC(=O)NS(=O)(=O)c2ccccc2Cl)n1	2732	nt	nt	1	-2	2	3.9
O=C(Nc1ccc(-c2nc3cccnc3s2)cc1)c1ccc(Br)o1	4572	-6	-7	-11	-19	0	15
Cc1noc(C)c1COC(=O)CCCOc1ccc(Cl)cc1Cl	2949	13	4	5	-7	7	12
OCC1(CO)COC(CCc2ccccc2)=N1	3216	9	8	4	-18	7	5.0
O=C(/C(=C/O)N=Nc1ccccc1)c1ccco1	4929	8	5	2	-47	-1	5.7
O=C(Cc1ccc(F)cc1)NC(Cc1c[nH]c2ccccc12)C(=O)O (stereo not given)	5931	-8	8	-4	6	-2	-3.6
O=C(NCCN1CCOCC1)/C(=C/c1ccc(F)cc1)NC(=O)c1ccccc1	3132	0	2	4	12	-3	-3.7
O=C(NC(=S)Nc1ncccn1)c1ccc(F)cc1	5746	1	-3	1	-53	4	-0.6
COc1cccc(-n2ccnc2SCC(=O)Nc2cc(OC)ccc2OC)c1	2182	nt	nt	0	12	-13	4.7
Cc1ccc(S(=O)(=O)NCC(=O)OC(C)C(=O)NCc2ccc3c(c2)OCO3)cc1 (stereo not given)	4667	5	2	5	-13	nt	2.6
O=C(Nc1cccc(C(F)(F)F)c1)c1ccc(Cn2cc(Br)cn2)o1	17799*	6	5	-23	-20	-2	1.2
Cc1ccc2cc(CCNC(=O)c3ccc(Br)o3)c(=O)[nH]c2c1	2072	nt	nt	-2	-13	-4	2.7
CCOCCn1c(CN2CCc3ccccc3C2)nc2c1c(=O)n(C)c(=O)n2C	4286	15	5	11	-16	7	1.5

Limited to Mtb hypoxia rep growth and BJeLR lethal, for some of the entries so far:
| molecule | Mtb hypoxia rep growth | BJeLR lethal |
| --- | --- | --- |
| Cc1ccc(S(=O)(=O)NCC(=O)OC(C)C(=O)NCc2ccc3c(c2)OCO3)cc1 (stereo not given) | 2 | nt |
| Cc1noc(C)c1COC(=O)CCCOc1ccc(Cl)cc1Cl | 4 | 7 |
| O=C(NCCN1CCOCC1)/C(=C/c1ccc(F)cc1)NC(=O)c1ccccc1 | 2 | -3 |
| O=C(/C(=C/O)N=Nc1ccccc1)c1ccco1 | 5 | -1 |
| COc1cccc(-n2ccnc2SCC(=O)Nc2cc(OC)ccc2OC)c1 | nt | -13 |

More results
SMILES	Autofluor counter	Mtb hypoxia rep	Mtb hypoxia rep growth	ugtP null kill	PrP UTR inh	BJeLR lethal	RN4220 kill
CCN1CCN(C(=O)c2cc(COc3ccc4ncccc4c3)on2)CC1	6162	15	3	-71	-5	16	11
COc1ccc(-c2csc(N3C(=O)C4C5c6ccccc6C(c6ccccc65)[C@@H]4C3=O)n2)cc1 (stereo not given in full)	2063	19	7	7	-12	-2	4.6
c1ccc(-c2nc(-c3nccc4ccccc34)oc2-c2ccccc2)cc1	4795	11	18	18	-52	0	2.5
Cc1cc(C)n(CC(=O)NNC(=O)CCCOc2ccc(Cl)cc2C)n1	5858	-3	15	-3	-24	-9	2.3

Bioassay records: PubChem BioAssay, several laboratories
